Lassa entry inh: Lassa virus entry inhibition. Potency, µM (titrated, usually from 37.9 µM), without a hit: top-dose activity change, negative = inhibition, actives largely listed as inhibitors. Lassa virus pseudotype entry inhibition, cell reporter; control for the full effect not named in the record. AID 540256. 300,000 tested, 1.2% active; active means well fitted inhibition curve with a large enough effect; inconclusive means small, poorly fitted or top-dose-only effect, or effect the other way; inactive means flat fitted curve, though single readings scatter; tested in HEK293 cells; also: % is scaled to controls: 0 for no effect and ±100 for the full control effect; nearly all actives have a fitted effect of over 50% in size; luciferase read-out
StopGo reporter: FMDV 2A StopGo reporter, luciferase signal; human cells with a luciferase reporter of 2A StopGo recoding; control for the full effect not named in the record; Potency, µM (titrated, usually from 57.9 µM), for inactives: top-dose signal change, negative = less light; 410,000 tested, 1.2% active; AID 1159524; active = well fitted falling curve with a large enough effect; inconclusive = small, poorly fitted or top-dose-only effect; inactive = no such curve, though single readings can be large or run the other way; tested in HEK293T cells; also: % is scaled to controls: 0 for no effect and ±100 for the full control effect; nearly all actives have a fitted effect of over 45% in size; luciferase light after 4 h
Cruzain Triton: inhibitors of Trypanosoma cruzi cruzain with detergent. Potency, µM, for the others: max response, negative = inhibition, usual class: inhibitors. P25779. 200,000 tested, 0.43% active. purified cruzain, Z-FR-AMC fluorescence, 0.01% Triton;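 also: plate controls were neutral wells for no effect and buffer without enzyme for full effect; nearly all actives have a fitted effect of over 40% in size; top concentration of the series not given in the record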
Target sequence (P25779 123-467 limits assumed): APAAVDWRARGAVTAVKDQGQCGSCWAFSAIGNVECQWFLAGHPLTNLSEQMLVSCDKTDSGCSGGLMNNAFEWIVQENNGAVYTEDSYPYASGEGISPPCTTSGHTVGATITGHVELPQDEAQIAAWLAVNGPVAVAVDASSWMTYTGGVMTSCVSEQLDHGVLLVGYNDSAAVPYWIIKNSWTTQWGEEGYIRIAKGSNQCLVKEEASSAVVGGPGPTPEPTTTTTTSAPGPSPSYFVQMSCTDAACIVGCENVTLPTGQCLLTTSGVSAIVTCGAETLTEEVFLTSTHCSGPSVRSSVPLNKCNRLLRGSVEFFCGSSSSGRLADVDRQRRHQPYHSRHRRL
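In this qHTS format, compounds are incubated with 1.5 nM cruzain for 15 min at room temperature before 2 uM Z-FR-AMC is added. Release of AMC is followed at 360/450 nm, and progress is taken as the 60 s fluorescence difference.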
MARV entry inh: inhibitors of Marburg virus binding or cell entry; AID 540276; Marburg virus pseudotyped entry inhibition, cell reporter; control for the full effect not named in the record; about a third of the inactives were read at about 46 µM; 300,000 tested, 1.8% active; Potency, µM (highest dose often 37.8 µM), for inactives: at the highest dose activity change, negative = inhibition, actives largely listed as inhibitors; active = well fitted inhibition curve with a large enough effect; inconclusive = small, poorly fitted or top-dose-only effect, or effect the other way; inactive = flat fitted curve, though single readings scatter; tested in HEK293 cells; about a fifth of its hits are not listed in these tables; also: % is scaled to controls: 0 for no effect and ±100 for the full control effect; luciferase read-out
RE007 growth inh: less growth of the S. pombe RE007 Vpr strain; S. pombe RE007 Vpr strain, BacTiter-Glo ATP luminescence, 24 h; control for the full effect not named in the record; Potency, µM (titrated, usually from 92.2 µM), inactives show at the highest dose activity change, negative = less growth; 360,000 tested, 0.21% active; AID 651644; active = well fitted falling curve with a large enough effect; inconclusive = small, poorly fitted or top-dose-only effect; inactive = no such curve, though single readings can be large or run the other way;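 also: % is scaled to controls: 0 for no effect and ±100 for the full control effect; nearly all actives have a fitted effect of over 50% in size; the assay follows cell death caused by Vpr and the record does not say whether a fall means rescue or toxicity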
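Fission yeast RE007 carrying one integrated HIV-1 vpr copy, seeded at OD 0.01 in PMG+AL medium with 23 nL pinned compound. Grown 24 h at 30 degrees; viability read by BacTiter-Glo luminescence after 5 min.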
Cruzain noTriton: inhibitors of Trypanosoma cruzi cruzain without detergent; P25779; purified cruzain, Z-FR-AMC fluorescence, no detergent; Potency, µM, for the others: max response, negative = inhibition, most hits filed as inhibitors; 200,000 tested, 2.3% active;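 also: plate controls were enzyme without inhibitor for no effect and buffer without enzyme for full effect; nearly all actives have a fitted effect of over 40% in size; top concentration of the series not given in the record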
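Detergent-free condition (0.00005% Triton X-100) in acetate buffer pH 5.5 with DTT. 1.5 nM enzyme and compound were pre-mixed 15 min, then 2 uM Z-FR-AMC substrate added; reaction progress from fluorescence change between first and third reads (60 s).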
SARS PLP yeast: blocks SARS-CoV papain-like protease in a yeast assay; S. cerevisiae expressing SARS-CoV PLpro, growth rescue; control for the full effect not named in the record; Potency, µM (highest dose often 32.9 µM), for inactives: at the highest dose activity, positive = growth rescue; 330,000 tested, 0.19% active; AID 485353; active means well fitted rising curve with a large enough effect; inconclusive means small, poorly fitted or top-dose-only effect; inactive means no such curve, though single readings can be large or run the other way; also: 0% is about no effect; nearly all actives have a fitted effect of over 55% in size; growth read by luminescence after 48 h
NS1 inh: blocks influenza NS1 protein function | S. cerevisiae slowed by influenza A NS1, growth recovery by OD600 | Potency, µM (top dose mostly 46.1 µM), inactives show at the top dose activity, positive = more growth | 270,000 tested, 0.4% active | AID 2326; active means well fitted rising curve with a large enough effect; inconclusive means small, poorly fitted or top-dose-only effect; inactive means no such curve, though single readings can be large or run the other way; also: nearly all actives have a fitted effect of over 50% in size
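In this qHTS, NS1 from influenza A is expressed in budding yeast, where it slows growth. Cells are switched from glucose to 2% galactose medium (pH 6.0, -URA), treated with compound, and growth recovery is read at OD600.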
An asterisk follows results filed as active; ? = inconclusive; . = not tested or not shown; & = joins results of further samples; [ ] = remark or other dose. Unless noted, calls follow the shape of the dose curve; as a rule, active = well fitted curve in the direction sought with a large enough effect; inconclusive = small, poorly fitted or top-dose-only effect, or another doubt; inactive = no such curve, though single readings can be large; an effect the other way counts as inactive or inconclusive. Potency is read from the fitted curve at half-maximal effect.

SMILES	Lassa entry inh	StopGo reporter	Cruzain Triton	MARV entry inh	RE007 growth inh	Cruzain noTriton	SARS PLP yeast	NS1 inh
NC(=O)c1ccsc1NC(=O)COC(=O)C1CCCN1C(=O)c1cccs1 (stereo not drawn)	10%	-30%	-1.4%	2%	6%	-8%	7%	-1%
CC(Oc1ccc(Cl)cc1Cl)C(=O)NC1CCSC1=O (stereo not drawn)	3%	-12%	-0.9%	-3%	?	-13%	-8%	-8%
COc1cn(CC(=O)Nc2cc(C)ccc2C)c(CN2CCCCC2)cc1=O	?	6%	7.6%	.	.	-11%	.	.
COc1ccc(NC(=O)C(NC(=O)c2ccc(=O)[nH]c2)c2ccccc2)cc1 (stereo not drawn)	4%	-24%	4.7%	2%	-16%	-7%	3%	-2%
COc1ccc(Cn2c(C)cc3c(c2=O)C(c2cccs2)C(C#N)=C(N)O3)cc1OC (stereo not drawn)	-12%	-12%	7.1%	-21%	0%	?	4%	-2%
c1ccc(Cn2c(CNc3nc4ccccc4n3CCN3CCOCC3)nc3ccccc32)cc1	-3%	-17%	0.9%	?	0%	-10%	-3%	-20%
O=C(c1cccc(S(=O)(=O)N2CCOCC2)c1)N1CCN(S(=O)(=O)c2cccc([N+](=O)[O-])c2)CC1	-7%[46.1 µM]	-7%	.	-16%	3%	.	-2%	.
NC(=O)C1(N2CCCCC2)CCN(C(=S)Nc2ccccc2)CC1	7%	-11%	0.8%	2%	-18%	-7%	-8%	5%
CCOC(=O)C1C(=O)N(C)C2(C)CC1c1cc(OC)ccc1O2 (stereo not drawn)	1%	14%	-1.0%	13%	17%	5%	0%	1%
CC1(C)C2CCC1(C)C(NC1=NCCC1)C2 (stereo not drawn)	16%	5%	1.0%	?	-5%	-6%	3%	-3%
CC1CCCN(c2nc3c(-c4ccc(Cl)cc4)nnn3c3ccccc23)C1 (stereo not drawn)	?	3%	1.5%	-4%[46.1 µM]	.	1%	.	.
Cc1noc(NS(=O)(=O)c2ccc(NC(=O)C34CC5CC(C3)CC(n3cnc(Cl)n3)(C5)C4)cc2)c1C	18%	-6%	0.2%	-2%	9%	24%	-12%	-24%
O=C(NCCc1csc(-c2cccnc2)n1)c1c(F)cccc1F	4%	12%	.	-3%[46.1 µM]	0%	.	-1%	2%
COc1ccc(OC)c(NC(=O)CN(c2ccc(OC)c(Cl)c2)S(C)(=O)=O)c1	20%	.	-7.7%	-30%	6%	?	-1%	-5%
Cc1cc2cc3c(cc2nc1SCC(=O)N1c2ccccc2CC1C)OCO3 (stereo not drawn)	?	0%	-2.2%	?	3%	?	-24%	25%
O=C(CSc1nccn1-c1ncc(C(F)(F)F)cc1Cl)c1ccc(Cl)cc1	?	0%	-3.5%	3%	-7%	-1%	3%	0%
CCOCN(C(=O)CSc1nc2ccccc2[nH]1)c1c(C)cccc1CC	-18%[46.1 µM]	3%	-6.6%	-20%[46.1 µM]	.	-5%	.	.
CCOc1ccccc1NC(=O)c1ccc(F)c(S(=O)(=O)N2CCC3(CC2)OCCO3)c1	2%	-13%	-0.5%	3%	2%	?	13%	-14%
COc1ccc(O/C(=N\S(=O)(=O)c2ccccc2)c2ccccc2)cc1	11%	.	2.8%	-1%	-2%	1%	3%	10%
O=C(c1cn(-c2ccccc2)nc1-c1cc2ccccc2oc1=O)N1CCOCC1	-3%[46.1 µM]	-1%	.	-2%[46.1 µM]	2%	.	1%	-4%
COCc1cc(C)nc(OC)c1C(N)=O	9%[46.1 µM]	-4%	.	14%[46.1 µM]	-9%	.	3%	.
COc1ccc(N(CC(=O)Nc2ccc3c(c2)OCCO3)S(=O)(=O)c2c(C)noc2C)cc1	?	?	-1.2%	17%	1%	22%	1%	?
CCCc1cc(=O)n2[nH]c(Cc3ccccc3)nc2n1	-1%	-5%	-3.2%	-29%	16%	?	2%	-2%
CN(C)c1nc(Cl)nc2c1nc(Cl)n2C1CCCCO1 (stereo not drawn)	20%[46.1 µM]	8%	.	3%	-19%	.	.	.
COC(=O)c1ccc(OCC(O)CNCC(c2ccc(OC)cc2)N(C)C)c(OC)c1 (stereo not drawn)	2%	21%	.	-19%	-11%	.	1%	0%

Arranged by molecular weight (ascending): part of the list above.
SMILES	Lassa entry inh	StopGo reporter	Cruzain Triton	MARV entry inh	RE007 growth inh	Cruzain noTriton	SARS PLP yeast	NS1 inh
CC(Oc1ccc(Cl)cc1Cl)C(=O)NC1CCSC1=O (stereo not drawn)	3%	-12%	-0.9%	-3%	?	-13%	-8%	-8%
O=C(NCCc1csc(-c2cccnc2)n1)c1c(F)cccc1F	4%	12%	.	-3%[46.1 µM]	0%	.	-1%	2%
O=C(c1cn(-c2ccccc2)nc1-c1cc2ccccc2oc1=O)N1CCOCC1	-3%[46.1 µM]	-1%	.	-2%[46.1 µM]	2%	.	1%	-4%

Reprinted from the results shown for reference:
SMILES	Lassa entry inh	StopGo reporter	Cruzain Triton	MARV entry inh	RE007 growth inh	Cruzain noTriton	SARS PLP yeast	NS1 inh
CN(C)c1nc(Cl)nc2c1nc(Cl)n2C1CCCCO1 (stereo not drawn)	20%[46.1 µM]	8%	.	3%	-19%	.	.	.
COC(=O)c1ccc(OCC(O)CNCC(c2ccc(OC)cc2)N(C)C)c(OC)c1 (stereo not drawn)	2%	21%	.	-19%	-11%	.	1%	0%

Carrying on:
SMILES	Lassa entry inh	StopGo reporter	Cruzain Triton	MARV entry inh	RE007 growth inh	Cruzain noTriton	SARS PLP yeast	NS1 inh
CC1CCN(S(=O)(=O)c2ccc3c(ccc(=O)n3CC(=O)Nc3ccc(C(C)C)cc3)c2)CC1	-38%[46.1 µM]	-10%	-1.9%	.	.	9%	.	.
COc1cc([N+](=O)[O-])ccc1NC(=O)COC(=O)C=C(C)C	-10%[46.1 µM]	-11%	.	?	-14%	.	-1%	.
COc1cccc(NC(=O)Cn2c(=O)cc(C)c3c(C)nn(-c4cccc(F)c4)c32)c1	3%[46.1 µM]	0%	-2.6%	.	.	-8%	.	.
CCN(C(=O)CN1CCN(c2ccc(O)cc2)CC1)c1c(N)n(Cc2ccccc2)c(=O)[nH]c1=O	-12%	-6%	-0.5%	10%&10%	20%	-13%	1%	-4%
Cc1ccc(-n2c(=O)c3c4c(sc3n3c(C)nnc23)COC(C(C)C)C4)cc1 (stereo not drawn)	0%	-5%	.	13%&13%	0%	.	.	.
COC(=O)C(Cc1ccccc1)NC(=O)C12CC3CC(CC(C3)C1)C2 (stereo not drawn)	?	-7%	-3.1%	?	26%	-1%	22%	-1%
Cn1c(=O)n(C)c2cc([N+](=O)[O-])c(N3CCN(C(=O)c4ccc(F)cc4)CC3)cc21	?	?	.	?	-10%	.	0%	2%
CSCCC(NS(=O)(=O)c1ccc2c(c1)OCCO2)C(=O)NCCc1ccccn1 (stereo not drawn)	-9%	24%	0.1%	18%	4%	-11%	-1%	3%
Cc1ccc(C)c(NC(=O)CCC(=O)N/N=C/c2cc([N+](=O)[O-])ccc2O)c1	?	-20%	.	?	-10%	.	0%	-32%
Cc1cccc(C)c1N1CCN(C(=O)N2CCOCC2)CC1	-1%	-18%	.	-11%	4%	.	-2%	-1%
COC(=O)c1sc(-c2ccccc2)cc1NC(=O)Nc1ccc(F)cc1	15%[46.1 µM]	-14%	-2.5%	-25%[46.1 µM]	.	?	.	.
N#C/C(=C(/O)CCl)c1nnc2n1CCCCC2	5%	-19%	.	22%	4%	.	6%	.
O=C(NCCCN1CCOCC1)c1cc(S(=O)(=O)N2CCOCC2)c(Cl)cc1Cl	30%	-13%	.	8%	9%	.	3%	.
O=C(/C=N/O)NCCCn1ccnc1	?	-1%	9.0%	15%	8%	1%	2%	?
CCOc1cc(Br)ccc1S(=O)(=O)N1CCC(C(N)=O)CC1	-22%	10%	2.0%	4%	-18%	5%	4%	7%
CCCCn1c2c(c(=N)c3ccccc31)CCC2	6%	-29%	.	16%	-9%	.	-1%	-8%
CO/N=C(/CS(=O)c1ccc(Br)cc1)c1ccc(OC)cc1 (stereo not drawn)	10%	-11%	-4.1%	-7%	-2%	-1%	7%	-5%
O=C(CNC(=O)c1ccco1)NNC(=O)c1n[nH]c(=O)c2ccccc12	-1%[46.1 µM]	24%	.	6%[46.1 µM]	-10%	.	0%	.
O=C(CCS(=O)(=O)c1ccccc1)N1CCN(c2ccccc2F)CC1	?	41%[activator]	.	7%	-9%	.	-1%	-11%

Of the compounds above, these have bromine.
SMILES	Lassa entry inh	StopGo reporter	Cruzain Triton	MARV entry inh	RE007 growth inh	Cruzain noTriton	SARS PLP yeast	NS1 inh
CCOc1cc(Br)ccc1S(=O)(=O)N1CCC(C(N)=O)CC1	-22%	10%	2.0%	4%	-18%	5%	4%	7%
CO/N=C(/CS(=O)c1ccc(Br)cc1)c1ccc(OC)cc1 (stereo not drawn)	10%	-11%	-4.1%	-7%	-2%	-1%	7%	-5%

High-throughput results deposited in PubChem by National Center for Advancing Translational Sciences (NCATS).
